# Screening data deposited in PubChem BioAssay by Broad Institute.
# A1 apoptosis 2: A1 inhibitors via caspase activation, primary screen, cell-based, luminescence, HTS, two replicates | MEF A1-2A-BIM cells, caspase-Glo luminescence, 3 h; percent of clofoctol response, DMSO zero | caspase activation, % (test concentration not listed) | 24,000 tested, under 10 active | AID 2465, 2010; in the data active = caspase activation above about 5.9%;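 also: wells of about 30 µL received 50 nL stock; the first replicate is given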
#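 Material: mouse embryonic fibroblasts co-expressing A1 and BIM (A1-2A-BIM), primed for A1 dependence / Quantity: 2500 cells/well / Buffer or medium: RPMI-1640 growth medium with 10% FBS / Doses: 50 nL compound per well, pinned / Schedule: 3 h compound exposure at 37 °C / Signal: Caspase-Glo luminescence (DEVD substrate) / Measure: Caspase-3/7 activation, seen as rise in luminescence signal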
# * = called active by the depositor.
SMILES,A1 apoptosis 2
Cc1ccc(O)c(/C=N/NC(=O)c2cccc(C(=O)NO)c2)c1,-0.8
COc1ccc(NC(=O)N(C)C[C@H]2Oc3ccc(NS(=O)(=O)c4c(C)noc4C)cc3CC(=O)N([C@@H](C)CO)C[C@H]2C)cc1,1.7
C[C@@H]1CN([C@H](C)CO)C(=O)Cc2cc(NC(=O)Nc3ccc(F)cc3)ccc2O[C@@H]1CN(C)S(=O)(=O)c1ccccc1,0.2
C[C@@H]1CN([C@H](C)CO)C(=O)CCCn2nncc2CO[C@H]1CN(C)C(=O)Nc1cccc2ccccc12,1.3
C[C@H]1CN([C@@H](C)CO)C(=O)c2cc(NC(=O)C3CCCCC3)ccc2O[C@@H]1CN(C)Cc1ccncc1,0.5
Cc1noc(C)c1S(=O)(=O)Nc1ccc2c(c1)CC(=O)N([C@H](C)CO)C[C@H](C)[C@H](CN(C)C(=O)Nc1ccccc1)O2,0.0
C[C@H]1CN([C@@H](C)CO)C(=O)CCCn2cc(nn2)CO[C@@H]1CN(C)S(=O)(=O)c1ccccc1F,0.9
C=CC[C@]1(C(=O)NCCN2CCOCC2)COC(c2ccc(OCCCO)cc2)=N1,-0.6
C[C@@H]1CN([C@@H](C)CO)C(=O)c2cccc(NC(=O)Nc3ccc(C(F)(F)F)cc3)c2O[C@H]1CN(C)S(=O)(=O)c1ccc(Cl)cc1,-0.2
COc1ccc(S(=O)(=O)Nc2ccc3c(c2)C(=O)N([C@H](C)CO)C[C@@H](C)[C@@H](CN(C)C(=O)C2CCCCC2)OCCCC[C@H](C)O3)cc1,0.4
CC(C)NC(=O)N(C)C[C@@H]1Oc2ccc(NS(C)(=O)=O)cc2C(=O)N([C@@H](C)CO)C[C@H]1C,0.5
Cc1ccc(S(=O)(=O)Nc2ccc3c(c2)CC(=O)N([C@H](C)CO)C[C@H](C)[C@@H](CN(C)Cc2ccc(C(=O)Nc4ccccc4N)cc2)O3)cc1,-1.2
C[C@@H]1CCCCO[C@@H](CN(C)CC2CCCCC2)[C@H](C)CN([C@H](C)CO)C(=O)c2cc(NC(=O)C3CCCCC3)ccc2O1,0.0
C[C@@H]1CN([C@@H](C)CO)C(=O)c2cc(NC(=O)Nc3cccc4ccccc34)ccc2O[C@H]1CN(C)C(=O)Nc1ccc2c(c1)OCO2,-0.5
C[C@H](CO)N1C[C@H](C)[C@@H](CN(C)CC2CCCCC2)Oc2ccc(NC(=O)C3CCCCC3)cc2CC1=O,0.3
C[C@H](CO)N1C[C@H](C)[C@@H](CN(C)Cc2ccc(Cl)c(Cl)c2)Oc2c(NC(=O)c3nc4ccccc4s3)cccc2C1=O,-0.4
C[C@@H]1CN([C@H](C)CO)C(=O)c2cc(NC(=O)Nc3ccc4c(c3)OCO4)ccc2O[C@@H]1CN(C)C(=O)Nc1ccc(F)cc1,1.1
Cc1noc(C)c1S(=O)(=O)Nc1ccc2c(c1)C(=O)N([C@H](C)CO)C[C@@H](C)[C@@H](CN(C)C(=O)C1CCCCC1)OCCCC[C@H](C)O2,0.3
C[C@@H]1CCCCO[C@@H](CN(C)Cc2ccc(C(=O)O)cc2)[C@@H](C)CN([C@H](C)CO)C(=O)c2cc(NC(=O)Nc3ccccc3)ccc2O1,0.5
C[C@@H]1CN([C@@H](C)CO)C(=O)c2cc(NS(C)(=O)=O)ccc2O[C@@H](C)CCCCO[C@@H]1CN(C)C(=O)Nc1ccc2c(c1)OCO2,0.0
C[C@H](CO)N1C[C@H](C)[C@@H](CN(C)Cc2ccncc2)Oc2ccc(NC(=O)Nc3ccccc3)cc2CC1=O,0.6
COc1ccc(CN(C)C[C@@H]2OCCCC[C@H](C)Oc3ccc(NC(=O)c4ccncc4)cc3C(=O)N([C@@H](C)CO)C[C@H]2C)cc1,0.4
Cc1noc(C)c1S(=O)(=O)Nc1ccc2c(c1)C(=O)N([C@@H](C)CO)C[C@H](C)[C@@H](CN(C)C(=O)Nc1ccc(C(F)(F)F)cc1)OCCCC[C@H](C)O2,-0.1
Cc1noc(C)c1NC(=O)N(C)C[C@@H]1Oc2ccc(NC(=O)C3CCCCC3)cc2CC(=O)N([C@H](C)CO)C[C@@H]1C,0.1
COc1ccc(NC(=O)Nc2ccc3c(c2)CC(=O)N([C@H](C)CO)C[C@@H](C)[C@H](CN(C)CC2CC2)O3)cc1,0.4
SMILES,A1 apoptosis 2
C[C@@H]1CN([C@H](C)CO)C(=O)c2cc(NC(=O)CCC(F)(F)F)ccc2O[C@@H](C)CCCCO[C@H]1CN(C)C(=O)NC1CCCCC1,0.1
CC(C)NC(=O)N(C)C[C@H]1Oc2ccc(NC(=O)CCN3CCOCC3)cc2C(=O)N([C@@H](C)CO)C[C@H]1C,0.0
COc1ccc(S(=O)(=O)Nc2ccc3c(c2)C(=O)N([C@H](C)CO)C[C@H](C)[C@H](CN(C)Cc2ccc(C(=O)Nc4ccccc4N)cc2)O3)cc1,-0.5
C[C@@H]1CCCCO[C@H](CN(C)Cc2ccc(C(F)(F)F)cc2)[C@@H](C)CN([C@H](C)CO)C(=O)c2cc(NC(=O)CCCCCC(=O)Nc3ccccc3N)ccc2O1,-0.9
C[C@@H]1CN([C@H](C)CO)C(=O)Cc2cc(NS(=O)(=O)c3cccs3)ccc2O[C@H]1CN(C)C(=O)NC1CCCCC1,0.5
COc1ccc(NC(=O)N(C)C[C@@H]2Oc3ccc(NS(=O)(=O)c4cccs4)cc3C(=O)N([C@H](C)CO)C[C@@H]2C)cc1,0.6
C[C@@H]1CN([C@@H](C)CO)C(=O)c2cc(NC(=O)c3ccncc3)ccc2O[C@@H](C)CCCCO[C@@H]1CN(C)Cc1ccc(C(=O)O)cc1,1.8
CC(C)NC(=O)N(C)C[C@@H]1Oc2ccc(NC(=O)CCCCCC(=O)Nc3ccccc3N)cc2CC(=O)N([C@@H](C)CO)C[C@@H]1C,0.1
CNC[C@H]1Oc2ccc(NC(=O)Cn3cnnn3)cc2C(=O)N([C@H](C)CO)C[C@H]1C,2.7
Cc1noc(C)c1NC(=O)Nc1ccc2c(c1)C(=O)N([C@@H](C)CO)C[C@H](C)[C@@H](CN(C)C(=O)NC1CCCCC1)O2,-0.2
CC(C)NC(=O)Nc1ccc2c(c1)C(=O)N([C@H](C)CO)C[C@H](C)[C@@H](CN(C)S(C)(=O)=O)OCCCC[C@H](C)O2,-0.2
Cc1noc(C)c1NC(=O)N(C)C[C@H]1OCCCC[C@H](C)Oc2ccc(N(C)C)cc2C(=O)N([C@@H](C)CO)C[C@@H]1C,0.0
CC(C)NC(=O)N(C)C[C@H]1Oc2c(cccc2N(C)C)C(=O)N([C@H](C)CO)C[C@H]1C,1.4
C[C@@H]1CCCCO[C@@H](CN(C)C(=O)C2CCCCC2)[C@@H](C)CN([C@@H](C)CO)C(=O)c2cc(NS(=O)(=O)c3ccc(F)cc3)ccc2O1,0.4
C[C@H]1CN([C@@H](C)CO)C(=O)CCCn2cc(nn2)CO[C@H]1CN(C)C(=O)Nc1ccc(-c2cccs2)cc1,0.9
Cc1noc(C)c1NC(=O)N(C)C[C@@H]1Oc2ccc(NC(=O)C3CC3)cc2CC(=O)N([C@H](C)CO)C[C@@H]1C,0.6
CNC[C@@H]1OCCCC[C@H](C)Oc2ccc(NS(=O)(=O)c3c(C)noc3C)cc2C(=O)N([C@@H](C)CO)C[C@@H]1C,0.0
Cc1ccc(S(=O)(=O)Nc2ccc3c(c2)C(=O)N([C@H](C)CO)C[C@H](C)[C@H](CN(C)C(=O)Nc2ccc4c(c2)OCO4)OCCCC[C@@H](C)O3)cc1,-0.5
Cc1noc(C)c1NC(=O)Nc1cccc2c1O[C@@H](CN(C)S(=O)(=O)c1cn(C)cn1)[C@@H](C)CN([C@H](C)CO)C2=O,1.1
Cc1noc(C)c1NC(=O)N(C)C[C@H]1Oc2ccc(N(C)C)cc2CC(=O)N([C@@H](C)CO)C[C@H]1C,0.2
C[C@H](CO)N1C[C@H](C)[C@H](CN(C)Cc2ccccc2)OCCCC[C@H](C)Oc2ccc(NC(=O)c3ccncc3)cc2C1=O,0.5
C[C@H]1CN([C@@H](C)CO)C(=O)c2cccc(NC(=O)Nc3ccccc3)c2O[C@H]1CN(C)S(=O)(=O)c1cn(C)cn1,-0.4
C[C@H]1CN([C@@H](C)CO)C(=O)Cc2cc(NS(=O)(=O)c3ccc(F)cc3)ccc2O[C@H]1CN(C)Cc1ccc2c(c1)OCO2,-0.9
Cc1noc(C)c1NC(=O)Nc1ccc2c(c1)C(=O)N([C@H](C)CO)C[C@@H](C)[C@H](CN(C)S(=O)(=O)c1ccc(F)cc1)OCCCC[C@H](C)O2,0.1
CCO[C@H]1OC(C(=O)N2CCN(Cc3ccc4c(c3)OCO4)CC2)=C[C@@H](c2ccc3c(c2)OCO3)[C@@H]1CCCO,0.2
SMILES,A1 apoptosis 2
Cc1ccc(S(=O)(=O)Nc2ccc3c(c2)C(=O)N([C@@H](C)CO)C[C@H](C)[C@H](CN(C)Cc2ccc(-c4ccccc4)cc2)O3)cc1,-1.2
COc1ccc(CN(C)C[C@H]2Oc3ccc(NC(=O)Cc4cn(C)c5ccccc45)cc3CC(=O)N([C@@H](C)CO)C[C@H]2C)cc1,0.2
C[C@H]1CN([C@@H](C)CO)C(=O)Cc2cc(NC(=O)Cn3cnnn3)ccc2O[C@@H]1CN(C)C,-1.4
C[C@H](CO)N1C[C@H](C)[C@H](CN(C)S(=O)(=O)c2cccs2)Oc2ncc(-c3cccc(C(F)(F)F)c3)cc2C1=O,1.0
C[C@H](CO)N1C[C@H](C)[C@H](CN(C)Cc2ccc(-c3ccccc3)cc2)OCc2cn(nn2)CCCC1=O,-0.2
C[C@H](CO)N1C[C@H](C)[C@H](CN(C)C)Oc2ccc(NS(=O)(=O)c3ccc(Cl)cc3)cc2CC1=O,-0.3
C[C@@H]1CN([C@@H](C)CO)C(=O)c2cc(NC(=O)C3CC3)ccc2O[C@@H]1CN(C)S(=O)(=O)c1ccccc1,1.7
C[C@H](CO)N1C[C@H](C)[C@@H](CN(C)S(=O)(=O)c2cccs2)Oc2ccc(NS(=O)(=O)c3ccc(F)cc3)cc2C1=O,-1.4
CC(C)NC(=O)N(C)C[C@H]1OCCCC[C@H](C)Oc2ccc(NS(=O)(=O)c3ccccc3)cc2C(=O)N([C@H](C)CO)C[C@@H]1C,-0.3
C[C@H]1CN([C@@H](C)CO)C(=O)Cc2cc(NS(=O)(=O)c3ccccc3)ccc2O[C@H]1CN(C)Cc1ccc(C(=O)Nc2ccccc2N)cc1,0.8
C[C@@H]1CN([C@@H](C)CO)C(=O)c2cc(NC(=O)Nc3ccc(C(F)(F)F)cc3)ccc2O[C@@H](C)CCCCO[C@H]1CN(C)S(=O)(=O)c1cn(C)cn1,-0.8
C[C@@H]1CCCCO[C@H](CN(C)C(=O)Nc2ccc(F)cc2)[C@@H](C)CN([C@@H](C)CO)C(=O)c2cc(NC(=O)Nc3ccccc3)ccc2O1,-0.5
Cc1noc(C)c1NC(=O)N(C)C[C@H]1OCCCC[C@@H](C)Oc2ccc(NS(=O)(=O)c3cn(C)cn3)cc2C(=O)N([C@H](C)CO)C[C@H]1C,-0.7
Cc1noc(C)c1S(=O)(=O)Nc1ccc2c(c1)CC(=O)N([C@H](C)CO)C[C@H](C)[C@@H](CN(C)C(=O)Nc1ccc(F)cc1)O2,0.4
C[C@@H]1CN([C@@H](C)CO)C(=O)c2cc(NC(=O)Nc3ccc(F)cc3)ccc2O[C@@H](C)CCCCO[C@@H]1CN(C)CC1CCCCC1,0.8
COc1ccc(S(=O)(=O)Nc2ccc3c(c2)C(=O)N([C@H](C)CO)C[C@H](C)[C@@H](CN(C)C(=O)Cc2ccccc2)OCCCC[C@H](C)O3)cc1,-0.8
C[C@@H]1CN([C@@H](C)CO)C(=O)Cc2cc(NC(=O)Cc3ccccc3)ccc2O[C@H]1CN(C)S(=O)(=O)c1ccccc1,-1.3
C[C@H]1CN([C@@H](C)CO)C(=O)Cc2cc(NC(=O)Cc3cn(C)c4ccccc34)ccc2O[C@H]1CN(C)Cc1ccc(-c2ccccc2)cc1,-0.8
C[C@@H]1CN([C@@H](C)CO)C(=O)c2cc(N(C)C)ccc2O[C@@H](C)CCCCO[C@H]1CN(C)Cc1ccncc1,-0.7

# These rows are one share of the data; rates above refer to the full screens.
